Six1-Eya2 blk: inhibitors of human Six1/Eya2 interaction. activity change, % (no concentration beside the values). AlphaScreen GST-Six1/His-Eya2 binding, biochemical; hits give low values; control for the full effect not named in the record. 360,000 tested, 0.56% active. AID 651725. Q15475+O00167; in the data active = activity change below about -65%; inconclusive = about -30% to -65%; inactive = above about -30%; further: on the % scale 0 is the no-effect control and ±100 the full control effect; compound concentration not given in the record
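Compounds are tested against tagged Six1 and Eya2 proteins bridged by glutathione donor and nickel acceptor beads; after a one-hour incubation at 37 °C without light, AlphaScreen emission is recorded.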
TRPML1 inh: inhibitors of human TRPML1 channel; TRPML1-inducible cells, Ca2+ dye fluorescence, FDSS; hits give low values; inhibition of EC80 agonist-evoked calcium signal; activity change, negative = inhibition, % (test concentration not listed); Q9GZU1; 390,000 tested, 0.02% active; in the data active means activity change below about -50%; inconclusive means about -30% to -50%; inactive means above about -30%;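 further: stimulus is agonist 54-4 at its EC80 concentration; on the % scale 0 is the no-effect control and ±100 the full control effect; compound concentration not given in the record; the text of the record puts the active cut at -80%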
Target sequence (Q9GZU1 whole entry, looked up): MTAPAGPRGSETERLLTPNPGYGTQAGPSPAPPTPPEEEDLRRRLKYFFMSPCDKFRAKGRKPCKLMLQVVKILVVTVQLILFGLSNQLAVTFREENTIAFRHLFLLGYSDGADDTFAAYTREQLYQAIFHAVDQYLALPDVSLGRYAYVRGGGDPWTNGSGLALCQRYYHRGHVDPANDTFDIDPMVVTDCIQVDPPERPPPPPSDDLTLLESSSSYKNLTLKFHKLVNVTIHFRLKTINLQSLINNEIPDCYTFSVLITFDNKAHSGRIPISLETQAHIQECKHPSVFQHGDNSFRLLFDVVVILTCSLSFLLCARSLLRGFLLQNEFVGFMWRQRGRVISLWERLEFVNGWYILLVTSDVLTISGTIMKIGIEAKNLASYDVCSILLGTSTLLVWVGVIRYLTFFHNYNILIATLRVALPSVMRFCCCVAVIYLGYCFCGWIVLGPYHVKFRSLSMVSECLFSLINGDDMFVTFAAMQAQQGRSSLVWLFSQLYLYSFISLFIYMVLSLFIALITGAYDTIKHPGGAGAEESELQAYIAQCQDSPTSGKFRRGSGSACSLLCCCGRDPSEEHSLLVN
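Calcium fluorescence in TRPML1-DL cells induced overnight with Tet: a 110 s read after compound pin addition, then a 110 s antagonist read after challenge with 54-4 at 4 uM final (EC80).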
TRPML1 agonist: activates the human TRPML1 channel; 410,000 tested, 0.12% active; activation, % (test concentration not listed); Q9GZU1; TRPML1-expressing cells, Ca2+ dye fluorescence, FDSS; host cell line not named in the record; reference of the full effect not given here; in the data active = activation above about 50%; inconclusive = about 30% to 50%; inactive = below about 30%; further: 0% is about no effect; the text of the record puts the active cut at 80%
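Tet-induced TRPML1-DL cells, 1,500 per well, cultured overnight, were loaded with a no-wash Ca2+ dye for 45–90 min. Calcium fluorescence was recorded on the FDSS for 110 s after compound addition, before the EC80 agonist (4 uM 54-4) was added.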
D2 agonist: agonists of human D2 dopamine receptor (beta-arrestin) | P14416 | activation, % (test concentration not listed) | 360,000 tested, 0.084% active | AID 624465 | DiscoveRx PathHunter D2 beta-arrestin, luminescence, 90 min; 100% = 57 uM dopamine signal; in the data active = activation above about 40%; inconclusive = about 15% to 40%; inactive = below about 15%; further: compound concentration not given in the record; the text of the record calls up to 30% inactive
Target sequence (P14416 whole entry, looked up): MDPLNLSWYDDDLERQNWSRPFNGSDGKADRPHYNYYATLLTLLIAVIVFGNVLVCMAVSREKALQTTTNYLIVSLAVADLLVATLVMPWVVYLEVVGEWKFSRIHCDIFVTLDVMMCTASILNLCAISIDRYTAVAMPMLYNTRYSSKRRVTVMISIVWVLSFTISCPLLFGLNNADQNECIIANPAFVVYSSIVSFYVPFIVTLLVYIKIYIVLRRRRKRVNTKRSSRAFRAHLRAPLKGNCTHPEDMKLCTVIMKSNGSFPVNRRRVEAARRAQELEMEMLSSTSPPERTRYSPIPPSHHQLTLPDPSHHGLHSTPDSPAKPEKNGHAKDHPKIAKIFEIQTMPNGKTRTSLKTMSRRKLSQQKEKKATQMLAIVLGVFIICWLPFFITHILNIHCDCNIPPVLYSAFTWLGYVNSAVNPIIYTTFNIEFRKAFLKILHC
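DiscoveRx PathHunter D2 beta-arrestin cells (2,100/well) attached overnight, then compound-stimulated 90 min at 37 C in HBSS/10 mM HEPES/0.1% Tween-20 buffer; beta-galactosidase complementation read by luminescence after 1 h at ambient temperature. Dopamine 57 uM final (EC100) as control.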
PINK1 expr mod: changes PINK1 expression | PINK1 immunofluorescence, high-content cytometry, 24 h | Potency, µM (titrated, usually from 76.6 µM), for the others: at the top dose activation (PINK1 increase), usual class: activators | 410,000 tested, 0.2% active; active = well fitted activation curve with a large enough effect; inconclusive = small, poorly fitted or top-dose-only effect; inactive = flat fitted curve, though single readings scatter; cell line not stated here;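 further: potency means the concentration at half of the fitted maximal effect; % of control where 0% means no effect; nearly all actives have a fitted effect of over 65% in size; a mitochondrial uncoupler was the plate control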
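PINK1 protein level read as immunofluorescence by microplate cytometer in a fixed, stained stable cell line after 24 h exposure to five compound concentrations, with CCCP as control.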
D2 PAM: potentiates the human D2 dopamine receptor allosterically; P14416; DiscoveRx D2 beta-arrestin cells, luminescence, 90 min; 100% = 57 uM dopamine signal; potentiation, % (test concentration not listed); 360,000 tested, 0.23% active; AID 624464; active = potentiation of 50% or more; inconclusive = 30% to 50%; inactive = 30% or less;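 further: compound concentration not given in the record; tested on top of an EC20 dose of dopamine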
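D2 cells co-treated with compound plus 50 nM dopamine (EC20) for 90 min at 37 deg C to detect potentiation. Beta-arrestin recruitment was read as enzyme-fragment luminescence after 1 h at ambient temperature. Full response was set by 57 uM dopamine.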
Numbers without * were called inactive; u = inconclusive; x = not tested or not shown; & = joins results of further samples; [ ] = remark or other dose.

SMILES	Six1-Eya2 blk	TRPML1 inh	TRPML1 agonist	D2 agonist	PINK1 expr mod	D2 PAM
O=C(CN(CCc1ccccc1)C(=O)CNS(=O)(=O)c1ccc(F)cc1)NCc1ccco1	1.3	5.8	-0.4	-1.4	-1.5%	-20.2
Cc1ccc2c(C)c(C(=O)N(Cc3ccccc3)C3CCS(=O)(=O)C3)oc2c1 (stereo unspecified)	-3.4	32.6	-1.3	-1.0	0.4%	-6.4
COc1ccc(NC(=O)CCNS(=O)(=O)c2ccccc2F)cc1S(=O)(=O)N1CCOCC1	2.6	-16.8	0.0	-1.5	-1.1%	2.3
Cc1cc(C(=O)N2CCCC(C)(C(=O)NS(=O)(=O)C3CC3)C2)nn1C(C)(C)C (stereo unspecified)	-0.1	15.4	0.0	-3.4	0.0%	-5.6
COc1cc(OC)cc(C(=O)N[C@H](C(=O)OCc2cc(=O)oc3cc(C)ccc23)C(C)C)c1	-10.3	2.4	-0.1	-4.4	1.8%	-20.1
O=C(COC(=O)COc1ccccc1)NC1CCCC1	10.0	-8.7	-0.3	-4.1	-0.4%	-5.8
COc1cc(OC)cc(-c2sc3ccc(OC)cc3c2C#CCO)c1	1.1	11.8	0.0	0.7	11.1%	-2.6
CCCCCCc1nc(C(N)=O)c2[nH]c(=O)n(-c3ccc(OCC)cc3)c2n1	0.2	-3.5	-0.1	9.4	4.9%	4.0
CCCCn1c(N)c(N(CCC(C)C)C(=O)C2CCCC2)c(=O)[nH]c1=O	3.7	-1.3	-1.0	-0.5	0.6%	4.5
CCC(C)NC(=O)CCSCCC(=O)NC(C)CC (stereo unspecified)	9.1	8.6	0.6	1.7	-1.3%	-5.9
Cc1ccc(S(=O)(=O)N2CCN(Cc3nc4ccc(C)cc4o3)CC2)cc1	x	-7.2	0.0	x	1.2%	x
O=C(Nc1ncn[nH]1)c1ccccc1O	-14.0	5.6	-0.8	-2.3	0.3%	-10.1
CC1CC2(NC(=O)NC2=O)C(C)CN1C (stereo unspecified)	4.4	-10.5	-0.5	-1.6	-1.0%	17.6
COc1ccc(-c2nc(NC(=O)CCNC(=O)c3ccco3)sc2C)cc1	-7.3	-22.9	1.2	-15.3	1.7%	-2.4
Cn1c(=O)c(C(=O)NCc2ccccc2Cl)c(O)c2ccccc21	2.2	20.4	-0.1	1.5	0.5%	-4.1
Nc1nc(SCC(=O)NCC2CCCO2)n[nH]1 (stereo unspecified)	6.1	38.9	-0.5	-3.2	-0.6%	-7.4
Cn1c(SCC(=O)Nc2ccc3c(c2)CCC3)nnc1C1CC1	-1.1	14.1	1.3	-1.9	1.0%	-16.2
CCOc1ccc(C(=O)CC(C(=O)O)N2CCN(Cc3ccccc3)CC2)cc1 (stereo unspecified)	-0.3	-2.2	3.1	5.0	2.1%	-2.5
COc1ccc(NC(=O)Cc2ccc(Cl)c(Cl)c2)cn1	3.8	-7.1	0.7	-8.2	-0.9%	-50.2
CCOC(=O)c1sc2nc(C)nc(SCC(=O)N(C)C3CCS(=O)(=O)C3)c2c1C (stereo unspecified)	4.1	-12.2	2.0	-2.1	-0.6%	-4.2
CNC(=S)N(CCc1c(C)[nH]c2ccc(OC)cc12)Cc1cc(OC)c(OC)c(OC)c1	-26.0	-7.0	-0.7	2.5	3.5%	0.7
COc1ccc(OC)c(NC(=O)C2CCN(S(=O)(=O)c3ccc4c(c3)CC(C)N4C(C)=O)CC2)c1 (stereo unspecified)	-2.9	20.2&-15.3	-1.2&-0.8	-4.8	-0.1%&2.7%	-36.3
Cc1ccc(NC(=O)CSc2nc(-c3ccccc3Cl)nc3cc(=O)[nH]n23)c(C)c1	x	-10.6	-0.3	x	-1.5%	x
C#CCN1C(=O)C(O)(CC(=O)c2cc(OC)ccc2OC)c2ccccc21 (stereo unspecified)	4.0	-2.5	0.3	-2.5	1.1%	2.2
COC(=O)C1CCN(C(=O)c2cc3ccccc3oc2=O)CC1	5.9	-10.2	1.6	-1.1	13.1%[38.3 µM]	-7.4
CC1=NN(c2ccccc2)C(=O)C1/C=C1/NC(=S)NC1=O (stereo unspecified)	-9.9	11.5	1.1	-5.7	0.3%	-7.5
CCCCn1c2c(c(=N)c3ccccc31)CCC2	3.4	-4.2	-0.6	-3.6	-2.4%	-4.4
CC1CCN(S(=O)(=O)c2ccc3c(ccc(=O)n3CC(=O)Nc3ccc(C(C)C)cc3)c2)CC1	x	5.8	0.6	x	-4.8%	x
Cc1ccc(C(=O)NC(NC(=S)Nc2ccc(S(N)(=O)=O)cc2)C(Cl)(Cl)Cl)cc1 (stereo unspecified)	-21.0	25.9	1.1	9.4	u	u
Cc1cccc(NC(=O)C2CCCN(c3cnccn3)C2)c1 (stereo unspecified)	-4.6	-5.7	0.7	0.2	0.2%	-8.2
CC1=C(C(=O)Nc2ccc(F)cc2F)C2(CCN(C(C)C)CC2)OC1=O	x	14.3	-0.7	x	0.2%	x
CCOC(=O)c1nnn(-c2ccccc2C#N)c1C	-1.3	-12.6	-0.3	-0.3	0.1%	2.6
Cc1ccc(CC(=O)NCCCc2ccccc2)cc1	4.8	-5.5	0.1	2.3	0.2%	-11.2
COc1ccc(NC(=O)C2CCN(C(=O)[C@@H]3Cc4ccccc4CN3)CC2)cc1	-0.9	2.1	0.4	-2.3	0.2%	-9.6
COC(CNC(=O)C(=O)NCC1OCCN1S(=O)(=O)c1ccccc1)OC (stereo unspecified)	3.0	-6.9	-0.6	-0.4	-0.6%	-9.1
Oc1ccc(C2=Nn3c(nnc3-c3ccco3)SC2)cc1O	-89.4*	3.3	-0.1	-0.7	2.5%	10.0
CC(=O)Oc1ccc(C(=O)NC(C)CCc2ccccc2)cc1 (stereo unspecified)	2.4	x	x	-4.4	2.5%	11.8
Cn1c(CN2CCCC2)nc2cc(NC(=O)COc3ccc([N+](=O)[O-])cc3)ccc21	-6.8	-8.7	-0.5	-1.2	0.6%	-36.7
COc1ccc(N(CC(=O)NCCC2=CCCCC2)S(C)(=O)=O)cc1OC	0.4	2.5	0.1	-3.5	4.1%[38.3 µM]	-14.2
Cc1cc(NC(=O)CCN2C(=O)C3C4C=CC(C4)C3C2=O)c2ccccc2n1 (stereo unspecified)	-4.8	88.3	-0.7	1.0	-2.1%	13.8

An excerpt from the list above, as a working copy:
SMILES	Six1-Eya2 blk	TRPML1 inh	TRPML1 agonist	D2 agonist	PINK1 expr mod	D2 PAM
CC1CCN(S(=O)(=O)c2ccc3c(ccc(=O)n3CC(=O)Nc3ccc(C(C)C)cc3)c2)CC1	x	5.8	0.6	x	-4.8%	x
Cc1ccc(C(=O)NC(NC(=S)Nc2ccc(S(N)(=O)=O)cc2)C(Cl)(Cl)Cl)cc1 (stereo unspecified)	-21.0	25.9	1.1	9.4	u	u
Cc1cccc(NC(=O)C2CCCN(c3cnccn3)C2)c1 (stereo unspecified)	-4.6	-5.7	0.7	0.2	0.2%	-8.2
CC1=C(C(=O)Nc2ccc(F)cc2F)C2(CCN(C(C)C)CC2)OC1=O	x	14.3	-0.7	x	0.2%	x
CCOC(=O)c1nnn(-c2ccccc2C#N)c1C	-1.3	-12.6	-0.3	-0.3	0.1%	2.6
Cc1ccc(CC(=O)NCCCc2ccccc2)cc1	4.8	-5.5	0.1	2.3	0.2%	-11.2
COc1ccc(NC(=O)C2CCN(C(=O)[C@@H]3Cc4ccccc4CN3)CC2)cc1	-0.9	2.1	0.4	-2.3	0.2%	-9.6
COC(CNC(=O)C(=O)NCC1OCCN1S(=O)(=O)c1ccccc1)OC (stereo unspecified)	3.0	-6.9	-0.6	-0.4	-0.6%	-9.1
Oc1ccc(C2=Nn3c(nnc3-c3ccco3)SC2)cc1O	-89.4*	3.3	-0.1	-0.7	2.5%	10.0
CC(=O)Oc1ccc(C(=O)NC(C)CCc2ccccc2)cc1 (stereo unspecified)	2.4	x	x	-4.4	2.5%	11.8
Cn1c(CN2CCCC2)nc2cc(NC(=O)COc3ccc([N+](=O)[O-])cc3)ccc21	-6.8	-8.7	-0.5	-1.2	0.6%	-36.7
COc1ccc(N(CC(=O)NCCC2=CCCCC2)S(C)(=O)=O)cc1OC	0.4	2.5	0.1	-3.5	4.1%[38.3 µM]	-14.2
Cc1cc(NC(=O)CCN2C(=O)C3C4C=CC(C4)C3C2=O)c2ccccc2n1 (stereo unspecified)	-4.8	88.3	-0.7	1.0	-2.1%	13.8

Additional structures.
SMILES	Six1-Eya2 blk	TRPML1 inh	TRPML1 agonist	D2 agonist	PINK1 expr mod	D2 PAM
Cc1cc(N2CCCCC2)nc2c(C)cccc12	44.7	17.0	-1.8	-4.7	18.1%	-6.3
FC(F)(F)c1cccc(-n2cccc2/C=N/n2cnnc2)c1	-1.7	30.9	0.3	-1.9	3.8%[38.3 µM]	-10.3
COc1ccc(NS(=O)(=O)c2ccc(Oc3c(C#N)cccc3C#N)cc2)cc1	-2.0	-9.2	-0.7	5.3	6.8%	-0.3
O=C(c1ccc(-c2ccccc2)cc1)N1CCC(C(=O)N2CCCC2)CC1	5.2	-7.8	-0.5	0.9	x	3.2
Cc1cn(C)c(CC(=O)N2CCN(c3cccc(Cl)c3)CC2)c1C(=O)O	x	15.0	0.2	x	-1.1%	x
CC(=O)Nc1ccc(NC(=O)CN(c2ccc(F)cc2)S(=O)(=O)c2ccc3c(c2)OCCO3)cc1	-2.5	-1.3	-0.5	-1.5	2.2%[38.3 µM]	-7.4
COc1ccc(CNC(=O)Cn2c(=O)n3nc(-c4cccc(F)c4)nc3c3ccccc32)cc1OC	x	5.3	0.6	x	4.6%	x
COc1ccc(NC(=O)CN2CCCCC2)cc1	-2.3	-0.4	-0.9	-2.9	-0.6%	-16.9
O=C(O)CN(c1ccccc1)C1SC(=O)NC1=O (stereo unspecified)	0.7	6.3	-0.8	-2.2	-1.6%	10.5
CC(C)N(Cc1ccccc1)C(=O)COc1ccccc1	-5.1	x	x	2.2	0.1%	-8.8
Cc1ccc(S(=O)(=O)c2cnc(SCC(=O)Nc3ccc4c(c3)OCCO4)[nH]c2=O)cc1Cl	x	5.9	1.4	x	-0.6%	x
Cn1c(=O)[nH]c2ncccc21	15.0	-5.4	0.0	0.0	1.0%	1.4
CCC(=O)N/C(=N/c1nc(C)cc(C)n1)Nc1cccc(OC)c1	-1.6	-2.9	-0.2	-2.7	x	-6.9
O=C(COc1cc(F)ccc1[N+](=O)[O-])Nc1cc(S(=O)(=O)N2CCCC2)ccc1Cl	-10.8	10.8	1.1	3.0	10.0%	-16.1
O=C1c2cccc3cc(Br)cc(c23)C(=O)N1Nc1ccc(Br)cc1	13.2	-1.1	1.0	-3.3	14.2%	-13.4
CC1(c2nnc(-c3ccc(F)cc3)o2)CC(c2cccc(Cl)c2)=NO1 (stereo unspecified)	9.6	34.2	2.4	-2.5	1.0%	-6.0
Cc1nn2c(-c3ccccc3)cc(-c3ccccc3)nc2c1-c1ccc(Cl)cc1	x	-4.6	0.0	x	0.8%	x
Cc1nc(SCc2ccccc2)c2oc3ccccc3c2n1	17.4	-9.2	0.8	5.5	24.2%	-2.6

From PubChem
